# Bioassay records from PubChem.
# GIV-Gai inh – inhibitors of GIV peptide binding to Galpha-i3, primary screen, biochemical, fluorescence polarization, FITC-GIV GBA peptide, rat Galphai3. Guanine nucleotide-binding protein G(i) subunit alpha-3 (Rattus norvegicus), P08753. 90 min; stronger effect = lower value; scaled: aluminum fluoride 0%, vehicle 100%. percent of control (FP), % (no concentration beside the values). 210,000 compounds, 0.42% hits. AID 1224905, 2016;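 active means replicate mean at 85% of control or lower, very high polarization wells dropped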;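 further: wells of about 15 µL received 100 nL stock; the first replicate is given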
# Target sequence (P08753 whole entry, looked up): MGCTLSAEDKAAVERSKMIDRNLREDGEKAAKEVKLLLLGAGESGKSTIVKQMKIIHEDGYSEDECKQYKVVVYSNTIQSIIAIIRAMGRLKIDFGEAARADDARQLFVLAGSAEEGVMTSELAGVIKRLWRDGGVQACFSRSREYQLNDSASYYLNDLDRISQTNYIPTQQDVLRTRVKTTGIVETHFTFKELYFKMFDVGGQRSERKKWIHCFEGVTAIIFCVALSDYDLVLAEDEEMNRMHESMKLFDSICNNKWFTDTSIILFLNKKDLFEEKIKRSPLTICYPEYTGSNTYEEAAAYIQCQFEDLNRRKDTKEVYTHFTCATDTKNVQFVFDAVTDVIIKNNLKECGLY
# HCMV NEC inh – inhibitors of HCMV UL50-UL53 interaction, biochemical, HTRF; HCMV UL50-UL53 nuclear egress complex (human cytomegalovirus); normalized percent inhibition; inhibition, % (no concentration beside the values); 190,000 compounds, 0.15% hits; AID 1918969, 2023;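 active means both replicates at 50% or more, plus weaker picks with an unusually low signal ratio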;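 further: stock transfer was 100 nL into about 20 µL; 0% = negative control wells and 100% = wells with untagged competitor protein; inactives centre near -12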
# * marks the source's active call; other numbers are inactive results; x = not tested or not shown; & = joins results of further samples.
nr | molecule | GIV-Gai inh | HCMV NEC inh
1 | COc1ccc(-c2ccc(N3CCN(C)CC3)nn2)cc1S(=O)(=O)N1CCOCC1 | 100.9 | x
2 | Cc1cc(C)cc(-c2cc3nc(C)cc(N4CCC(C(=O)NC5CCCCC5)CC4)n3n2)c1 | 109.3 | x
3 | O=C(C1CCN(S(=O)(=O)c2ccc(-c3noc(C4CC4)n3)cc2)CC1)N1CCCC1 | 106.8 | x
4 | Cc1ccc(-c2noc(C3CC3)n2)cc1S(=O)(=O)NC(C)C(=O)Nc1nccs1 (configuration not stated) | 111.6 | x
5 | Cc1nc(-c2csc(S(=O)(=O)N3CCCC(C(=O)NC4CCCC4)C3)c2)no1 (configuration not stated) | 108.8 | x
6 | COc1cc(-c2nc3sc4c(c3c(=O)[nH]2)CCCC4)ccc1OCCOc1ccc(C(C)(C)C)cc1 | 109.7 | x
7 | CCOc1ccc(-c2c[n+]3c(n2-c2ccccc2)CCCCC3)cc1 | 103.9 | x
8 | Cc1cccc(C)c1NC1=NC(=S)N(c2ccccc2)C12CCC(C(C)(C)C)CC2 (configuration not stated) | 102.3 | x
9 | CCCOC(=O)c1ccc(Nc2c(C(=O)OCC)cnc3c(C)cc(C)cc23)cc1 | 100.7 | x
10 | COc1ccc(N2CCN(S(=O)(=O)c3cc(-c4nc(C(C)C)cs4)sc3C)CC2)cc1 | 103.9 | x
11 | Cc1ccc(NC(=O)Cn2c(=O)c(CCC(=O)NC3CCCC3)nc3ccccc32)c(C)c1 | 99.9 | x
12 | Cc1noc(C)c1C1CCCN1S(=O)(=O)c1ccc2c(c1)OCCO2 (configuration not stated) | 91.9 | x
13 | O=C1C2C3c4ccccc4C(c4ccccc43)C2C(=O)N1c1ccc(Cl)cc1[N+](=O)[O-] (configuration not stated) | 106.0 | x
14 | Cc1ccc(NC(=O)Cn2cnc3sc(C(=O)N4CCN(c5ccc([N+](=O)[O-])cc5)CC4)c(C)c3c2=O)cc1Cl | 109.9 | x
15 | O=C(CN1C(=O)C2(OCCO2)c2cc(Br)ccc21)c1ccccc1C(F)(F)F | 102.7 | x
16 | Cc1ccc(Cl)cc1NC(=O)CSC1=C(C#N)C(c2ccco2)C2=C(CCCC2=O)N1 (configuration not stated) | 105.0 | x
17 | Cc1ccc(C23CC4CC(CC(C(=O)NC(C)C)(C4)C2)C3)cc1 | 110.3 | x
18 | Cc1cccc(NC(=O)c2cc(S(=O)(=O)N3CCc4ccccc4C3)ccc2F)c1C | 118.4 | x
19 | CCC(C(=O)Nc1cc(F)c2nc(N3CCCC3)ccc2c1)c1ccccc1 (configuration not stated) | 100.9 | x
20 | CC(=O)Nc1nc(N2CCC(C(=O)NC3CCCC3)CC2)sc1C(=O)N1CCCC1 | 98.1 | x
21 | CN1C(=O)N(C)C2(c3ccccc3)Nn3c(s/c(=C/c4ccco4)c3=O)=NC12c1ccccc1 (configuration not stated) | 105.8 | x
22 | COc1ccc(Cn2nc3c(S(=O)(=O)N4CCOCC4)cccn3c2=O)cc1F | 100.1 | x
23 | Cn1c(=S)[nH]c2c(c1=O)C(C)(C)Cc1ccccc1-2 | 107.0 | x
24 | CCCc1cc(C2CCCN2Cc2ccc(OCC)c(OC)c2)no1 (configuration not stated) | 110.1 | x
25 | O=C(Nc1cnc2oc(-c3ccccc3)nn2c1=O)c1ccccc1Cl | 101.4 | x
26 | COc1ccc2c(c1)C(C)CC(C)(C)N2C(=O)NC1CCCCC1 (configuration not stated) | 117.9 | x
27 | COC(=O)c1sccc1NC(=O)CN1CCCN(Cc2cc(C)ccc2C)S1(=O)=O | 108.0 | x
28 | CC1(C)CC(=O)C2=C(C1)OC1=C(C(=O)CC(C)(C)C1)C2c1ccc(-c2ccccc2C(=O)O)o1 | 106.7 | x
29 | CCOC(=O)CNC(=O)Cn1c(-n2nc(C)cc2C)nc2c(c1=O)CCCC2 | 96.6 | x
30 | CCc1nc2ccc(CCC(=O)NCCCc3ccccc3)cc2[nH]1 | 102.6 | x

# Complete entries as entered above. Order of values: GIV-Gai inh, HCMV NEC inh
# CCOc1ccc(-c2c[n+]3c(n2-c2ccccc2)CCCCC3)cc1 in the list: 103.9, x
# Cc1nc(-c2csc(S(=O)(=O)N3CCCC(C(=O)NC4CCCC4)C3)c2)no1 (configuration not stated) in the list: 108.8, x
# COc1cc(-c2nc3sc4c(c3c(=O)[nH]2)CCCC4)ccc1OCCOc1ccc(C(C)(C)C)cc1 in the list: 109.7, x

# The list continues:
nr | molecule | GIV-Gai inh | HCMV NEC inh
31 | O=C(CSc1nc2[nH]ncc2c(=O)n1-c1ccccc1Br)N1CCN(c2ccccc2)CC1 | 107.7 | x
32 | O=c1[nH]c2ccc(S(=O)(=O)Nc3ccc(N4CCOCC4)cc3)cc2[nH]1 | 103.2 | x
33 | Cc1ccc(C2=Nc3ccccc3N=C(c3cccc(Br)c3)C2)c(O)c1 | 108.6 | x
34 | COc1cccc(Cn2nnc3cc(C(=O)NCc4cccc(Cl)c4)ccc32)c1 | 106.7 | x
35 | CC(C)CCCC(C)C1CCC2C3CC=C4CC(OC(=O)c5ccccc5)CCC4(C)C3CCC12C (configuration not stated) | 98.4 | x
36 | O=c1ccn(-c2ccc(F)c(F)c2)nc1-c1nc(-c2ccc3c(c2)OCO3)no1 | 106.1 | x
37 | COC(=O)C12Nc3ccccc3NC(c3ccccc3)=C1C(=O)C(=O)N2c1ccc(C)cc1 (configuration not stated) | 108.8 | x
38 | Cc1ccccc1-c1noc(CSc2nc3cc4c(cc3c(=O)n2Cc2ccccc2)OCO4)n1 | 101.3 | x
39 | COc1ccc(-n2nnnc2C2(Nc3ccc(I)cc3)CCCCC2)cc1 | 109.6 | x
40 | COc1ccc(OC)c(NC(=O)CSc2nc3n[nH]c(C)c3c(=N)n2-c2ccc(C)c(Cl)c2)c1 | 100.6 | x
41 | CCc1ccc(NC(=O)N2CCC(c3nnc(C(=O)Nc4ccc(OC)cc4)s3)CC2)cc1 | 104.9 | x
42 | Cc1ccccc1Cn1nnc2cc(C(=O)N3CCN(c4ccccn4)CC3)ccc21 | 105.8 | x
43 | CC(C)[C@@H]1NC(=O)[C@@H]2C[C@H](NC(=O)OCc3ccccc3)CN2C1=O | x | -8.8
44 | COc1ccc2c(=O)c(Oc3ccccc3)c(C)oc2c1OC | x | -10.5
45 | CC1CCc2c(sc(NC(=O)c3cccs3)c2C(=O)O)C1 (configuration not stated) | x | 4.0
46 | C=CCc1cccc2cc(C(N)=O)c(=O)oc12 | x | -16.0
47 | COCCn1c(=NC(=O)c2ccccc2)sc2cc(S(C)(=O)=O)ccc21 | x | -6.0
48 | Cc1cc(NC(=O)CN2C(=O)CC(c3ccccc3)Sc3ccccc32)no1 (configuration not stated) | x | -13.4
49 | COc1ccc(CC(=O)NC(C)C(c2cccs2)N2CCOCC2)cc1 (configuration not stated) | x | -6.5
50 | O=C(O)C(Cc1ccccc1)NS(=O)(=O)/C=C/c1ccccc1 (configuration not stated) | x | -15.2
51 | CC(C)Cn1c(CNC(=O)Cc2ccccc2)nc2ccccc21 | x | -3.4
52 | O=C(Nc1ccc(S(=O)(=O)N2CCCC2)cc1)c1cccs1 | x | 0.3
53 | O=C(CSc1nnc2sc3ccccc3n12)N1CCCC1 | x | 1.4&-15.5
54 | CCCCC1C2=C(CCCC2=O)OC2=C1C(=O)CCC2 | x | 0.1
55 | COc1ccccc1C1(O)CCN(CCCn2c3ccccc3c3ccccc32)CC1 | x | 3.8
56 | Oc1[nH]c(=S)sc1/C=N/c1nc2ccccc2[nH]1 | x | -26.7
57 | Cc1sc2ncnc(-c3cccc4cccnc34)c2c1C | x | 40.2&40.2
58 | COC1CCCCC1NS(=O)(=O)c1ccc(Cl)cc1 (configuration not stated) | x | -14.9
59 | COc1ccc(S(=O)(=O)n2ccc(C)n2)cc1C | x | 2.7
60 | O=C1OCCC1Sc1nc2sc3c(c2c(=O)[nH]1)CCC3 (configuration not stated) | x | -11.3
61 | CN(C)C(=O)C(=O)c1cn(C)c2cc(Cl)c(C(=O)N3CCC(Cc4ccc(F)cc4)CC3)cc12 | x | 3.2
62 | COc1cc(/C=C(\C#N)C(N)=O)cc(CSc2nc3ccccc3s2)c1O | x | -28.7&-34.8
63 | O=C(CSc1ncnc2sc3c(c12)CCCC3)c1ccco1 | x | 1.2
64 | Cc1ccc(C(=O)CC(c2cccs2)S(=O)(=O)c2ccccc2)cc1 (configuration not stated) | x | -5.2
65 | CN(CC(O)COCc1ccc2c(c1)OCO2)C1CCCCC1 (configuration not stated) | x | -8.0
66 | N#Cc1c(/N=C\c2ccc(O)cc2O)sc2c1CCCC2 | x | -14.7
67 | Cc1ccc(-n2nc3c(c2NC(=O)C(C)C)CS(=O)(=O)C3)cc1 | x | 6.1
68 | Cc1nn(-c2ccccc2)c2sc(C(=O)N3CC(C)OC(C)C3)cc12 (configuration not stated) | x | -2.5
69 | CCNc1nc(NCC)nc(SCC(=O)c2ccccc2)n1 | x | 8.2&-3.6
70 | COc1ccccc1C(=O)Nc1nnc(-c2ccccc2)o1 | x | -3.5
71 | C=CC(=O)Nc1cccc(Nc2nc(Nc3ccc(OCCOC)cc3)ncc2F)c1 | x | 6.8
72 | CCC1OC(=O)CC(O)C(C)C(O[C@H]2OC(C)C(O[C@H]3C[C@@](C)(O)C(O)C(C)O3)C(N(C)C)C2O)C(CC=O)CC(C)C(=O)C=CC(C)=CC1COC1OC(C)C(O)C(OC)C1OC (some centres not stated) | x | -13.6
73 | CCOC(=O)C(CCc1ccccc1)NC(C)C(=O)N1Cc2cc(OC)c(OC)cc2CC1C(=O)O (configuration not stated) | x | -11.2
74 | Cc1nc2c(c(=O)[nH]1)CSCC2 | x | -3.3
75 | Nc1ccc(C(=O)Nc2cccc(-c3nc(N4CCOCC4)c4oc5ncccc5c4n3)c2)cn1 | x | -32.6&-2.6&-26.7&-17.8&-15.7
76 | CC(C)c1nnc(NC(=O)c2ccccc2C(F)(F)F)s1 | x | -2.0
77 | NC(C(=O)O)c1cc(O)ccc1Cl (configuration not stated) | x | -0.7
78 | CCOC(=O)C1CCCN(CC(O)COc2cccc(C)c2)C1 (configuration not stated) | x | -5.4
79 | O=C(O)CNC(=O)Cc1c[nH]c2ccccc12 | x | -35.5
80 | CCC(=O)NC1Cc2ccccc2C(c2ccccc2)C1 (configuration not stated) | x | 5.7
81 | COc1ccc(/C=C2/SC(=S)N(CCC(=O)Nc3nccs3)C2=O)cc1 | x | -0.8
82 | CC(C)(O)CCC(O)[C@](C)(O)C1CC[C@@]2(O)C3=CC(=O)[C@@H]4CC(O)C(O)C[C@]4(C)[C@@H]3CC[C@]12C (some centres not stated) | x | -2.4
83 | O=C(O)c1cc2c(o1)CCC/C2=N/O | x | -13.5
84 | CN(C1CCc2c(c3ccccc3n2CC(=O)O)C1)S(=O)(=O)c1ccc(F)cc1 (configuration not stated) | x | 17.7&17.7
85 | NC(=O)c1cc[n+](CC2=C(C(=O)[O-])N3C(=O)[C@@H](NC(=O)Cc4cccs4)[C@H]3SC2)cc1 | x | -41.6
86 | COC(=O)C1=COC(O)[C@@H]2C(CO)=CC[C@H]12 (some centres not stated) | x | 11.9
87 | O=C1/C(=C/c2ccncc2)CC/C1=C\c1ccncc1 | x | -34.4
88 | COCC(=O)Nc1c(C(=O)OC)n(C)c2ncc(NCc3cnn(C)c3C)cc12 | x | -9.5
89 | N#Cc1ccsc1NC(=O)c1ccccc1 | x | 1.3
90 | Cn1c(SCC(=O)Nc2ccc(F)cc2F)nnc1-c1c[nH]c2ccccc12 | x | -15.9

# Shown as labelled records: 3 of the compounds above
[79] O=C(O)CNC(=O)Cc1c[nH]c2ccccc12
  GIV-Gai inh: x	HCMV NEC inh: -35.5

[82] CC(C)(O)CCC(O)[C@](C)(O)C1CC[C@@]2(O)C3=CC(=O)[C@@H]4CC(O)C(O)C[C@]4(C)[C@@H]3CC[C@]12C (some centres not stated)
  GIV-Gai inh: x	HCMV NEC inh: -2.4

[69] CCNc1nc(NCC)nc(SCC(=O)c2ccccc2)n1
  GIV-Gai inh: x	HCMV NEC inh: 8.2&-3.6

# The list continues:
nr | molecule | GIV-Gai inh | HCMV NEC inh
91 | O=C(NCc1nnc(SC/C=C/c2ccccc2)o1)c1ccco1 | x | -4.0
92 | Cc1[nH]c2ccccc2c1SCCNC(=O)c1ccccc1 | x | -9.9
93 | O=C(NOCC(O)CO)c1cc(Br)c(F)c(F)c1Nc1ccc(I)cc1F (configuration not stated) | x | 13.1
94 | CC(C)CC(=O)Nc1ccc(C(=O)O)cc1 | x | -13.7
95 | Cc1cccn2cc(-c3ccc(NC(=O)CC(C)C)cc3)nc12 | x | -3.7
96 | CC1C/C(=C\c2cccnc2)C(=O)/C(=C/c2cccnc2)C1 (configuration not stated) | x | 13.8&-2.6
97 | Cn1cccc1Cc1nnc(SCC(=O)Nc2ccccc2)n1-c1ccc(F)cc1 | x | -14.0

# As a working copy, part of the list above.
nr | molecule | GIV-Gai inh | HCMV NEC inh
24 | CCCc1cc(C2CCCN2Cc2ccc(OCC)c(OC)c2)no1 (configuration not stated) | 110.1 | x
25 | O=C(Nc1cnc2oc(-c3ccccc3)nn2c1=O)c1ccccc1Cl | 101.4 | x
26 | COc1ccc2c(c1)C(C)CC(C)(C)N2C(=O)NC1CCCCC1 (configuration not stated) | 117.9 | x
27 | COC(=O)c1sccc1NC(=O)CN1CCCN(Cc2cc(C)ccc2C)S1(=O)=O | 108.0 | x
28 | CC1(C)CC(=O)C2=C(C1)OC1=C(C(=O)CC(C)(C)C1)C2c1ccc(-c2ccccc2C(=O)O)o1 | 106.7 | x
29 | CCOC(=O)CNC(=O)Cn1c(-n2nc(C)cc2C)nc2c(c1=O)CCCC2 | 96.6 | x
30 | CCc1nc2ccc(CCC(=O)NCCCc3ccccc3)cc2[nH]1 | 102.6 | x

# Not all compounds are listed, so the mix of outcomes need not match the whole.
